# miR-21 FLuc: qHTS Assay for Modulators of miRNAs and/orActivators of miR-21; HeLa miR-21 FLuc reporter, luciferase, 48 h; Potency, µM (highest dose often 38.3 µM), for the others: at the top dose reporter change, positive = more light; 340,000 tested, under 10 active; active = well fitted rising curve with a large enough effect; inconclusive = small, poorly fitted or top-dose-only effect; inactive = no such curve, though single readings can be large or run the other way;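 note: % of control where 0% means no effect; miR-21 action dims this reporter so a rising signal means less miR-21 action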
#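 Using DMEM plus 10% FBS, HeLa miR-21-FLuc cells are incubated with test compounds (final up to about 40uM) for 48 hours; firefly luciferase signal is then imaged following reagent-mediated lysis.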
# Rango complex inh: qHTS Assay for Inhibitors of Rango (Ran-regulated importin-beta cargo) - Importin beta complex formation; Importin subunit beta-1 (Homo sapiens), Q14974; Rango CFP/YFP FRET sensor + importin beta, 45 min; Potency, µM (highest dose often 92.2 µM), without a hit: at the top dose inhibition of complex formation; 340,000 compounds, 0.031% hits; AID 540263, 2011; active = rising FRET ratio curve, often small or poorly fitted; inconclusive = mostly compound fluorescence or quenching in the first reads; inactive = flat curves in all reads;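 note: potency is the fitted concentration of half-maximal effect; 0% = DMSO wells and 100% = buffer wells lacking importin beta; nearly all actives have a fitted effect of over 15% in size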
#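 FRET biosensor Rango (snurportin 1 IBB between N-terminal EYFP and C-terminal Cerulean), 50 nM in PBS/1 mM DTT/0.02% Tween-20/0.1% BSA, preincubated 5 min RT with compound; 0.125 microM importin beta added, 45 min RT, CFP/YFP FRET ratio read.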
# Rango dissoc inh: qHTS Assay for Inhibitors of RanGTP induced Rango (Ran-regulated importin-beta cargo) - Importin beta complex dissociation. Snurportin-1 (Homo sapiens) + GTP-binding nuclear protein Ran (Homo sapiens) + Importin …. Biochemical FRET Rango-importin beta, RanGTP-induced dissociation. Potency, µM (doses to about 46.1 µM), inactives show at the top dose activity change, negative = inhibition. 340,000 compounds, 0.071% hits. AID 540253, 2011; active means falling FRET ratio curve, often poorly fitted, with flat reads before Ran was added; inconclusive means other falling curves, or compound fluorescence or quenching; inactive means flat or rising ratio curve;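 note: potency is the fitted concentration of half-maximal effect; % of control where 0% means no effect; nearly all actives have a fitted effect of over 45% in size; -100% = wells without RanGTP and RCC1; the record marks most hits as doubtful in a second field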
#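 Recombinant Rango FRET biosensor (EYFP–snurportin 1 IBB–cerulean CFP10) at 0.1 uM premixed with 0.25 uM importin beta in PBS, 1 mM DTT, 0.02% Tween-20, 0.1% BSA. Compound added 5 min; RanGTP-RCC1 (0.6 uM Ran, 2 mM GTP, 0.2 uM RCC1) then triggers release, read at 45 min.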
# GLA inh pH 4.5: qHTS Assay for Inhibitors of Human alpha-Galactosidase at pH 4.5; AID 1467, 2008; purified enzyme, 4-MU-alpha-Gal fluorescence, pH 4.5; activity change, negative = inhibition, % at 105 µM; Alpha-galactosidase A (Homo sapiens), P06280; 230,000 tested, under 10 active; inconclusive = small, poorly fitted or top-dose-only inhibition, or a rising curve; inactive = flat fitted curve, though single readings scatter; no compound was filed as active;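 note: 0% = full activity with enzyme and -100% = basal without enzyme; dose as in the result columns while the protocol names 77 µM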
# Target sequence (P06280 whole entry, looked up): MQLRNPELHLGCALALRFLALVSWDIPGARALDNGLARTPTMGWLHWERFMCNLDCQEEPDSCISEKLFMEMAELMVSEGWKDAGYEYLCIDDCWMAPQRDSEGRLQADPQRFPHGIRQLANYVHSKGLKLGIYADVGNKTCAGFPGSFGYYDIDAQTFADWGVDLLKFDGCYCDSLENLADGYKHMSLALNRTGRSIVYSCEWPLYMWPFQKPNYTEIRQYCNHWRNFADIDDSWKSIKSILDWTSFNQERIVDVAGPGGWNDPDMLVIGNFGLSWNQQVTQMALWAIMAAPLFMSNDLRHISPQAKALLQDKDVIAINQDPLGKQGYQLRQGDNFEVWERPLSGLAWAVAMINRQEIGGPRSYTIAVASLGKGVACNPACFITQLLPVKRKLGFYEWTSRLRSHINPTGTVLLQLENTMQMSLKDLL
# An asterisk follows results filed as active; ? = inconclusive; . = not tested or not shown; & = joins results of further samples.
miR-21 FLuc	Rango complex inh	Rango dissoc inh	GLA inh pH 4.5	smiles
-35%	-0.1%	2%	.	CCN1C(=O)[C@H]2[C@@H](c3ccc(C)cc3)N3C(=O)N(c4ccccc4)C(=O)[C@@]3(CC)[C@H]2C1=O
.	?	?	.	COc1ccc(C2CC(c3ccccc3F)=NN2c2ccc(S(N)(=O)=O)cc2)cc1 (centres undefined)
-6%	0.7%	18%	.	O=C(NNC(=O)c1ccccc1C(=O)O)c1cc2ccccc2o1
-4%	4.9%	16%	7	CS(=O)(=O)Nc1ccc(C(=O)NCCSCc2ccccc2)cc1
.	2.6%	7%	.	CC(C)C(NC(=O)c1ccc(Cl)cc1Cl)C(=O)NCCc1ccccn1 (centres undefined)
.	3.5%	-14%	.	CC[C@]12c3[nH]c4cc(-c5ccco5)ccc4c3CCN1C(=O)[C@@H](CC(=O)NCCCn1ccnc1)C[C@@H]2C(=O)N1CCN(C(=O)C2CC2)CC1
.	-1.5%	3%	.	C=CC[C@@H](CC(=O)N(CCO)Cc1ccccc1)C(=O)N[C@@H](C)COC(=O)[C@@H](CC=C)CC(=O)OC(C)(C)C
.	1.4%	17%	.	CSc1cccc(N2CC(C(=O)NCCC3=CCCCC3)CC2=O)c1 (centres undefined)
-10%	1.8%	-9%	2	O=C(COc1cc(Cl)c(Cl)cc1Cl)NCCc1ccccn1
-1%	2.9%	0%	-9	Cc1cc(Cl)ccc1OC(C)c1nnc(N)s1 (centres undefined)
.	-0.8%	-3%	.	COc1ccc(-c2cn(CCC(=O)O)c(C)n2)cc1
-7%	2.4%	5%	-4	COc1ccc(S(=O)(=O)N(CC(=O)NC2CC2)C2CCCCC2)cc1Cl
0%	2.6%	-1%	12	O=C(COc1ccc(Cl)cc1)NCC(=O)N/N=C/c1cccs1
7%	-0.6%	-5%	-3	CCNC(=S)N1CCN(c2cccc(C(F)(F)F)c2)CC1
?	1.1%	?	4	CCOC(=O)/C=C/C(=O)Nc1ccccc1-c1ccccc1NC(=O)/C=C/C(=O)OCC
.	4.3%	15%	.	Nc1c(C(=O)CSc2nnc(-c3ccccc3F)o2)c(=O)[nH]c(=O)n1C1CC1
-3%	-2.4%	12%	-11	COc1ccc(C(=O)/C(C)=N/O)cc1OC
-1%	0.0%	20%	-2	C=CCNC(=S)N(CC=C)C1CCS(=O)(=O)C1 (centres undefined)
1%	-0.4%	3%	.	Cc1cc(OCc2nnc(SCC(=O)O)n2-c2ccccc2)ccc1Cl
-2%	-0.9%	-8%	-11	CC(=C/c1ccco1)/C=N/NC(=O)c1nnn(-c2nonc2N)c1CN(C)C
.	-0.5%	-16%	.	COc1ccc(S(=O)(=O)Nc2ccc3c(c2)N(C(C)=O)CCC3)cc1
.	-4.0%	-7%	.	Cc1ccc(C(=O)c2c3ccccc3[n+]([O-])n2CCO)cc1
.	-6.9%	4%	.	Cc1cc(NC(=O)CSc2nc(-c3cccs3)nc3ccccc23)no1
18%	-0.3%	17%	.	CCCCC(=O)OCC(=O)N1N=C(c2c[nH]c3ccccc23)C(O)C1c1ccc(OC)cc1 (centres undefined)
-4%	0.6%	13%	9	CNC(=S)N1CCN(c2ccccc2OC)CC1
-2%	-2.3%	-6%	-2	Cc1cccc(C(=O)NNS(=O)(=O)c2ccccc2[N+](=O)[O-])c1
0%	0.1%	-5%	1	CC(=O)c1ccc(N2C(=O)[C@@H]3C(CCC(N)=O)NC4(C(=O)Nc5c4ccc(Cl)c5C)[C@@H]3C2=O)cc1 (some centres undefined)
-45%	0.6%	-10%	4	O=C(Cc1cccs1)Nc1ccc(-c2nc3ccccc3[nH]2)cc1
.	-2.6%	-11%	.	O=C(O)c1cc(S(=O)(=O)Nc2cc(Cl)ccc2Oc2ccccc2)ccc1O
.	-1.4%	-2%	.	COc1ccc(-c2noc3c2-c2nc(-c4ccc(C)cc4)sc2CC3)cc1

# Further compounds follow:
miR-21 FLuc	Rango complex inh	Rango dissoc inh	GLA inh pH 4.5	smiles
1%	-1.1%	1%	2	CCOC(=O)c1sc(NC(=O)CNC(=O)Cn2cnc3sc(C)c(C)c3c2=O)nc1C
.	-0.6%	8%	.	CCN(CC)C(=O)[C@H]1C[C@H](CC(=O)NCCc2ccccn2)C(=O)N2CCc3c([nH]c4cc(CCC(=O)N(C)C)ccc34)[C@]12C
-5%	-0.3%	18%	3	Cc1ccc(CN(Cc2cc3cccc(C)c3[nH]c2=O)C(=S)NCCCN(C)C)cc1
-13%	4.7%	35%	-2	Cc1ccc(C(=O)Nc2c3c(nn2C(C)(C)C)CS(=O)(=O)C3)cc1C
.	-3.6%	28%	.	C=CCSc1nnc(CCc2ccccc2)n1N
12%	2.7%	3%	.	CCSc1nnc(NC(=O)c2nc(S(=O)(=O)Cc3ccc(F)cc3)ncc2Cl)s1
0%	2.5%	21%	-14	COc1ccc(C(=O)N2CCN(S(=O)(=O)c3ccc(C)cc3)CC2)cc1S(=O)(=O)N1CCOCC1
-9%	-1.7%	-3%	12	O=c1oc2cc(OCc3c(F)c(F)c(F)c(F)c3F)ccc2cc1-c1ccccn1
-8%	-1.4%	13%	4	CNC(=S)Nc1ccc2nc(C)c(C)nc2c1
0%	?	?	3	S=C(Nc1ccc2nc(-c3ccccn3)c(-c3ccccn3)nc2c1)N1CCCCC1
3%	-1.0%	8%	-12	O=C(CN1CCc2ccccc2C1)Nc1cc(S(=O)(=O)N2CCOCC2)ccc1N1CCOCC1
2%	?	-14%	-7	COC(=O)C1=C(O)/C(=C\c2cc(C)n(-c3ccc(F)cc3)c2C)N=C1C
-15%	-4.7%	9%	1	CC1(C)c2ccccc2-c2nc3ccccc3cc2C1O (centres undefined)
3%	6.1%	5%	.	COc1ccc(N(CC(=O)Nc2ccc(C)cc2)S(=O)(=O)c2c(C)noc2C)cc1
-3%	0.7%	1%	-13	Cc1csc2c(N3CCN(C(=S)Nc4ccc(C(F)(F)F)cc4)CC3)ncnc12
0%	-2.5%	8%	-21	O=C(Nc1ccccc1-c1nnc(SCc2ccccc2)o1)c1ccccc1
0%	-0.9%	7%	.	CN(C)c1ccc(/C=N/Nc2nc3ccccc3o2)cc1
.	-0.4%	-2%	.	CC12CCC(=O)C=C1CCC1C2C(O)CC2(C)C(c3csc(N)n3)CCC12 (centres undefined)
0%	0.1%	9%	.	COc1ccc(C2(O)C(=O)Nc3ccc(C)cc32)cc1OC (centres undefined)
.	-0.7%	-7%	.	COc1ccc(CNC(N)=O)cc1
-9%	?	0%	.	O=C1c2ccccc2C2(c3cc(C(F)(F)F)cc(C(F)(F)F)c3)NCCN12 (centres undefined)
-2%	0.8%	-21%	11	Cn1c2c(c(=O)n(C)c1=O)[C@@H]1c3c(ccc4ccccc34)OC[C@@H]1CO2
-56%	0.5%	10%	.	Cn1cccc1C(=O)OCc1ccc(C(C)(C)C)cc1
0%	1.1%	-4%	0	CCOc1ccc(OCCSc2nc(-c3ccccc3)cc(=O)[nH]2)cc1
0%	-0.9%	5%	-8	O=C(CN1C(=O)C2CC=CCC2C1=O)Nc1ccc(S(=O)(=O)N2CCOCC2)cc1 (centres undefined)
-9%	2.8%	0%	-4	COC(=O)c1ccc(NC(=O)NCCCl)cc1
.	0.2%	-18%	.	COc1cc(OC)cc(-c2sc3ccc(OC)cc3c2-c2ccc(O)cc2)c1
12%	0.0%	3%	4	COc1cc(C(=O)NCCSc2ccc(Br)cc2)cc(OC)c1OC
-2%	-1.2%	8%	-8	Cc1ccc(S(=O)(=O)NC(=O)c2cc(C)n(CC(c3ccccc3)N(C)C)c2C)cc1 (centres undefined)
10%	-0.8%	0%	0	O=C1CCCN1CCCNC(=S)Nc1ccc(Nc2ccccc2)cc1

# Next section.
miR-21 FLuc	Rango complex inh	Rango dissoc inh	GLA inh pH 4.5	smiles
-1%	-3.8%	0%	-3	CCCN1C2CCCC1CC(NC(=S)Nc1cccc(C)c1)C2 (centres undefined)
-21%	-1.9%	0%	.	COc1ccc(CC(=O)c2c(O)cc(O)cc2O)cc1OC
-6%	-5.3%	-10%	0	COc1ccc(CNS(=O)(=O)c2cc(OCC(N)=O)c(C)cc2Cl)cc1
-7%	-0.3%	1%	.	CS(=O)(=O)c1ccccc1C(=O)Nc1ccc2sccc2c1
-4%	-3.2%	-11%	3	C=CCOC(=O)C1=C(C)OC(N)=C(C#N)C1c1ccc(F)cc1 (centres undefined)
17%	11%	17%	-14	Cc1ccc(S(=O)(=O)N(CC(=O)N=Nc2c(O)[nH]c3ccccc23)c2cccc(C)c2)cc1
-5%	11%	2%	-7	O=C(CCc1nc(-c2ccccc2)c(-c2ccccc2)o1)OCc1ccc(Cl)cc1
1%	4.3%	0%	.	Cc1cccc(-n2ncc3c2CCCC3NC(=O)CN2CCCC2=O)c1C (centres undefined)
-1%	-0.5%	-12%	7	CC(C)(C)c1ccc(/C=N/N2CCN(c3ccccn3)CC2)cc1
1%	-3.2%	7%	-5	CCn1c(SCC(=O)Nc2ccc(C)cc2)nc(O)cc1=O
-3%	5.5%	2%	-3	COc1ccc(Nc2nc3ccccc3nc2NS(=O)(=O)c2cccs2)c(OC)c1
.	-2.9%	0%	.	O=C(CNC(=O)c1ccc(Cl)cc1Cl)OCCCn1c(=O)[nH]c2ccccc21
-3%	-2.1%	2%	-9	C/C(CC(=O)Nc1cccc(C(F)(F)F)c1)=N/NC(=O)C(=O)NCCO
-7%	?	?	-2	CC(C)Sc1nc(N2CCOCC2)c2c(c1C#N)CC(C)(C)N(C)C2
-2%	-4.9%	31%	5	Cc1nn(CCCC(=O)Nc2cccnc2Cl)c(C)c1[N+](=O)[O-]
.	0.7%	22%	.	Cc1ccc(NC(=O)CSCC(=O)Nc2ccccc2N2CCCCC2)cc1
-7%	-1.0%	-4%	2	O=C(CNS(=O)(=O)c1ccc(C(=O)N2CCOCC2)cc1)N1CCOCC1
3%	-3.2%	-10%	10&-8&3&-2&7	CCC1(c2ccccc2)C(=O)NCNC1=O
-4%	5.1%	4%	4	COc1ccccc1CN1C(=O)c2cccc3cccc(c23)C1=O
0%	2.0%	-18%	-1	CC1CCN(C(=O)COC(=O)c2ccc(Br)o2)CC1
0%	0.0%	-1%	-4	CC(C)(C)NC(=O)NC(=O)COC(=O)c1ccc(OC(F)F)cc1
-1%	5.9%	10%	.	COc1ccc(-n2nc(C(=O)NCC(=O)N3CCN(c4cccc(Cl)c4)CC3)c3ccccc3c2=O)c(OC)c1
10%	0.3%	0%	1	CCNC(=S)N/N=C/c1ccc(OCC(=O)Nc2ccc(C)cc2)cc1
-58%	-2.9%	-6%	-8	Oc1ccc(Br)cc1/C=N/N1CCCCC1
-10%	-0.7%	4%	.	Cc1ccc(N(C)S(=O)(=O)c2ccc(-c3ccc(=O)[nH]n3)s2)cc1C
-4%	-1.1%	1%	-2	CCOC(=O)c1ccc(COC(=O)c2ccc3c(c2)-c2ccccc2C3=O)cc1
0%	0.8%	8%	3	COc1ccc(C2=NO[C@@H]3C(=O)N(C4CCCCC4)C(=O)[C@H]23)cc1OC
20%	?	-18%	-12	COc1ccc(CC2(C)OC(c3ccc(Cl)cc3)=NN2C(C)=O)cc1 (centres undefined)
-11%	-2.1%	1%	2	COc1cccc(-c2nc(Cc3ccc(OC)c(OC)c3)no2)c1
8%	1.3%	-9%	-1	CCNc1nc(NCC)nc(N/N=C/c2ccc([N+](=O)[O-])o2)n1

# Arranged by length of the SMILES (rising): 3 of the compounds above
miR-21 FLuc	Rango complex inh	Rango dissoc inh	GLA inh pH 4.5	smiles
-5%	11%	2%	-7	O=C(CCc1nc(-c2ccccc2)c(-c2ccccc2)o1)OCc1ccc(Cl)cc1
0%	0.8%	8%	3	COc1ccc(C2=NO[C@@H]3C(=O)N(C4CCCCC4)C(=O)[C@H]23)cc1OC
-1%	5.9%	10%	.	COc1ccc(-n2nc(C(=O)NCC(=O)N3CCN(c4cccc(Cl)c4)CC3)c3ccccc3c2=O)c(OC)c1

# Screens as filed in PubChem BioAssay.

# An excerpt; rates above refer to the full screens.
